Mtb H37Rv – Mycobacterium tuberculosis H37Rv growth inhibition, cell based, confirmatory dose response (AID 1949). M. tuberculosis H37Rv growth inhibition. most inactive calls were filed without a number and no value below 0 was filed. inhibition, % at 10 µg/mL; hits with a dose series show IC50 in µg/mL. 100,000 tested, 1.6% active;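 active = confirmed in a dose series; inconclusive = about 50% or more but not retested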;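 note: bacteria grown 7 days with compound before Alamar blue readout; 0% = untreated bacteria and 100% = reference antibiotic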
Starred values were filed as active, the others as inactive; i = inactive; ? = inconclusive. These rows are one share of the data; the hit share may differ from the screen's.

nr	compound	Mtb H37Rv
1	CSc1ccccc1C(=O)Nc1ccccc1C(=O)NC1CCCCC1	i
2	Cc1ccc(Cl)c(OCCCCN(C)Cc2ccccc2)c1	8.3%
3	COc1ccc(N2C(=S)N(c3cccc(OC)c3)C3CS(=O)(=O)CC32)cc1 (centres undefined)	1.9%
4	O=C(CCCC(=O)NCC1CCCO1)NCC1CCCO1 (centres undefined)	i
5	COC(=O)c1cc(OC)c(OC)cc1NC(=O)CSc1nnc(-c2cccnc2)n1C	i
6	C=CCN1C(=S)N(c2ccc(OC)c(Cl)c2)C(=O)C1CC(=O)Nc1cccc(Cl)c1 (centres undefined)	24.5%
7	Cc1cc(C)cc(-n2c(-c3ccc(C(C)(C)C)cc3)n[nH]c2=S)c1	14.9%
8	CCOC(=O)C(NC(=O)Nc1ccccc1OC)(c1ccccc1)C(F)(F)F (centres undefined)	i
9	CC1=C(C(=O)OCc2ccccc2)C2(C(=O)Nc3ccc(Br)cc32)C(C(=O)OC(C)(C)C)=C(N)O1 (centres undefined)	3.3%
10	O=C(CSc1nc2ccccc2c(=O)[nH]1)Nc1cccc(I)c1	i
11	Cc1ccc(NC(=S)NCc2ccccc2)c(C)c1	i
12	Cc1cc2sc(NC(=O)c3cc4ccccc4o3)nc2cc1Cl	i
13	O=c1cc(CCCO)c2cc3c4c(c2o1)CCCN4CCC3	i
14	CCc1cccc(CC)c1NC(=O)CN(c1ccc(OC)cc1OC)S(C)(=O)=O	i
15	Cc1csc(NC(=O)CSc2nc3ccccc3s2)n1	?
16	COc1cccc(-c2cc(C(=O)Nc3cc(S(N)(=O)=O)ccc3C)c3ccccc3n2)c1	i
17	Cc1nc(-c2ccccc2)sc1C(=O)C1=C(O)C(=O)N(CCN2CCOCC2)C1c1cccs1 (centres undefined)	i
18	O=S(=O)(Nc1nc2ccccc2nc1NCc1ccc(Cl)cc1)c1ccccc1	i
19	COc1ccc(NC(=O)CCCOc2ccccc2OC)c(OC)c1	i
20	Cc1ccc(Oc2ncnc(N)c2[N+](=O)[O-])cc1C	i
21	O=C(CSc1nnc(-c2ccncc2)n1-c1ccc(Cl)cc1)Nc1ccc(F)c(Cl)c1	i
22	OCCn1c(SCCc2ccccc2)nc2ccccc21	i
23	O=C(COc1ccc(CO)cc1Cl)Nc1ccc(F)cc1	i
24	Cn1c(CNC(=O)c2ccc(Cl)c(Cl)c2)nnc1SCC(=O)Nc1nc2ccccc2s1	1.7%
25	Cc1cc([N+](=O)[O-])ccc1NC(=O)c1ccoc1C	i
26	O=C(Nc1ccccc1[N+](=O)[O-])c1ccccc1	3.1%
27	CN(CC(=O)N1CCN(Cc2ccc3c(c2)OCO3)CC1)S(=O)(=O)c1ccc(Cl)cc1	3.2%
28	O=C(Nc1ccc(N2CCN(C(=O)c3ccco3)CC2)cc1)c1ccco1	i
29	O=C(CNC(=O)c1ccc(Br)o1)Nc1ccccc1	i
30	O=C1/C(=C\c2ccccc2Cl)SC(=S)N1c1ccc(F)cc1	i

A different layout for two compounds above:
10	O=C(CSc1nc2ccccc2c(=O)[nH]1)Nc1cccc(I)c1
  Mtb H37Rv: i
11	Cc1ccc(NC(=S)NCc2ccccc2)c(C)c1
  Mtb H37Rv: i

More entries.
nr	compound	Mtb H37Rv
31	NS(=O)(=O)c1ccc(NC(=O)C2CCCO2)cc1 (centres undefined)	i
32	COc1cccc(C(=O)Nc2cccc(OCC(=O)c3ccc(F)cc3)c2)c1	24.8%
33	Cc1ccc(-c2nc(NC(=O)C34CC5CC(CC(C5)C3)C4)sc2C)cc1	i
34	CCOc1cc(CNc2ccc(F)cc2)ccc1OCC(=O)Nc1ccccc1Cl	i
35	O=c1c2ccccc2ncn1CCOCCOc1ccc(Cl)cc1Br	i
36	CC1=C(C(=O)Nc2ccc(C)cc2)C(c2c(Cl)cccc2Cl)NC(=S)N1 (centres undefined)	i
37	O=C(CN(c1ccccc1)S(=O)(=O)c1ccc(Cl)cc1)NCc1ccc(Cl)cc1Cl	1.7%
38	Cc1cc(Br)ccc1OCC(=O)NNC(=O)NC1CCCCC1	i
39	COc1ccc(CNC(=O)Nc2cccc(Cl)c2C)cc1	i
40	Cc1ccc(NC(=O)Nc2ccccc2[N+](=O)[O-])cc1Cl	i
41	COc1ccc(C(=O)COc2cccc3ccccc23)cc1	22.0%
42	Cc1ccc(S(=O)(=O)N2CCN(C(=O)c3ccccc3)CC2)cc1	i
43	COc1cc(/C=C/c2ccc3cccc(O)c3n2)cc(Cl)c1O	49.6%
44	CN1CCN(c2ccc([N+](=O)[O-])cc2C#N)CC1	i
45	CCN1CCN(c2ccc(NC(=O)COc3c(C)cc(C)cc3Cl)cc2)CC1	49.0%
46	Cc1oc(-c2ccc(F)cc2)cc1-c1nn2c(-c3ccco3)nnc2s1	i
47	Cn1c(/C=C/c2cccc(Br)c2)nc2ccccc2c1=O	i
48	COc1ccc(Br)cc1C(=O)NC(=S)Nc1ccc2ccccc2c1	i
49	COC(=O)C(C)Oc1ccc(Oc2nc(N(C)C)nc(N(C)C)n2)nn1 (centres undefined)	i
50	Oc1ccc(Cl)cc1C1=NNC(c2ccc(Br)cc2)C1 (centres undefined)	?
51	O=C(CCC(=O)N1CCN(C/C=C/c2ccccc2)CC1)N1CCN(C/C=C/c2ccccc2)CC1	i
52	CCn1nc(C)c(NC(=S)NCC2CCCO2)c1C (centres undefined)	i
53	CCOc1ccc(OCCN2CCOCC2)cc1	6.7%
54	CC1CCN(C(=O)CSc2ccc(Br)cc2)CC1	i
55	O=c1c(-c2ccco2)[n+]([O-])c2ccccc2n1OCc1ccccn1	9.0%
56	Cc1n[nH]c(=O)c2cc3c(C)n[nH]c(=O)c3cc12	i
57	CCc1cc2c(=O)c(-c3ccc4c(c3)OCCO4)coc2cc1OCC(=O)OC(C)C	5.83µg/mL*
58	O=C(NC(=O)c1ccccc1)Nc1ccc(Br)cc1	i
59	O=C1C2CC=C(Cl)CC2C(=O)N1N1CCCCC1 (centres undefined)	1.2%
60	O=C1CCCCCCC1C1(O)C(=O)Nc2ccccc21 (centres undefined)	i
61	Cc1ccc(OCc2nc3ccccc3n2Cc2ccccc2C)cc1	2.0%
62	CCOc1ccc(NS(=O)(=O)c2ccccc2C(F)(F)F)cc1	i
63	CCCCNC(=O)COc1ccc2c(C)cc(=O)oc2c1	i
64	Cc1ccc(S(=O)(=O)N2CCN(C(=O)CC(C)C)CC2)cc1	i
65	C=CCOc1ccc(C(=O)N2CCc3ccccc32)cc1	1.8%
66	COc1cc(OC)c(C(=O)Nc2ccc(F)cc2)cc1OC	i
67	O=C(Cc1ccccc1)NC(NC(=S)Nc1ccc(-c2ccccc2)cc1)C(Cl)(Cl)Cl (centres undefined)	33.0%
68	CCOc1ccccc1NC(=O)COc1ccc(C(C)C)cc1	5.01µg/mL*
69	CCOC(=O)C1CCN(S(=O)(=O)c2ccc(OC)c(C)c2)CC1	i
70	CC1CN(c2oc(COc3ccc(Cl)cc3Cl)nc2C#N)CC(C)O1 (centres undefined)	i
71	CCOCCc1nnc(NC(=O)C(C)Oc2ccccc2)s1 (centres undefined)	i
72	Cc1nonc1NC(=O)N1CCCCC1	3.9%
73	O=C(C1CCN(S(=O)(=O)c2cc(Cl)ccc2Cl)CC1)N1CCN(Cc2ccccc2)CC1	i
74	CCOc1cc2oc(=O)c(CC(=O)OC)c(C)c2cc1Cl	i
75	Nc1ccccc1SCC(=O)Nc1ccc2c(c1)OCO2	i
76	CCOc1ccc(C(=O)Nc2ccccc2Oc2ccccc2)cc1	5.0%
77	Cc1cc(-c2nn3c(C)nnc3s2)ccc1NC(=O)C(C)C	i
78	COc1ccc2c(c1)C(C)CC(C)(C)N2C(=O)CSc1nccc(C)n1 (centres undefined)	i
79	COc1ccc(S(=O)(=O)NCc2cccnc2)cc1Cl	i
80	CC(=O)Nc1ccc(I)c(C)n1	i
81	O=C(COc1cc(Cl)ccc1Cl)Nc1cccc(C(F)(F)F)c1	i
82	COc1ccc(NC(=O)CCN2C(=O)C3C4CCC(C4)C3C2=O)cc1 (centres undefined)	i
83	CC(=O)Nc1cccc(NC(=O)C(C)(C)Oc2ccc(Cl)cc2)c1	i
84	CCc1ccc(NS(=O)(=O)c2ccc(Cl)cc2OC)cc1	i
85	COc1ccc(NC(=S)N2CCC(C(=O)N3CCCCCC3)CC2)cc1	i
86	COc1cccc(NC(=S)NCc2ccc(Cl)cc2)c1	i
87	O=C(CN(c1cccc(C(F)(F)F)c1)S(=O)(=O)c1ccccc1)Nc1c(F)cccc1F	i
88	COc1cc2c(cc1OC)C(C)N(C(=O)CN1CCOCC1)CC2 (centres undefined)	i
89	COc1ccc(S(=O)(=O)N(CC(=O)Nc2ccccc2OC)c2ccc(Cl)cc2)cc1	i
90	COc1ccccc1OCc1ccc(C(=O)NCC2CCCO2)o1 (centres undefined)	i

Gathered by group, the compounds so far with an NH in an aromatic ring (3)
nr	compound	Mtb H37Rv
7	Cc1cc(C)cc(-n2c(-c3ccc(C(C)(C)C)cc3)n[nH]c2=S)c1	14.9%
10	O=C(CSc1nc2ccccc2c(=O)[nH]1)Nc1cccc(I)c1	i
56	Cc1n[nH]c(=O)c2cc3c(C)n[nH]c(=O)c3cc12	i

Numbers 67 to 68, reprinted for reference:
nr	compound	Mtb H37Rv
67	O=C(Cc1ccccc1)NC(NC(=S)Nc1ccc(-c2ccccc2)cc1)C(Cl)(Cl)Cl (centres undefined)	33.0%
68	CCOc1ccccc1NC(=O)COc1ccc(C(C)C)cc1	5.01µg/mL*

(cont.)
nr	compound	Mtb H37Rv
91	CCOc1ccc2nc(SCC(=O)NCCc3ccc(OC)c(OC)c3)sc2c1	i
92	Cc1n[nH]c(=O)nc1N1CCN(c2ccccc2)CC1	i
93	Cc1nn(-c2ccccc2)c(C)c1N1C(=O)c2cccc3cc([N+](=O)[O-])cc(c23)C1=O	0.15µg/mL*
94	O=C(O)CN(Cc1ccc(Cl)cc1)S(=O)(=O)c1ccc(Br)cc1	i
95	Cc1ccc(SCc2cc(=O)[nH]c(Nc3nc(C)c4ccc(C)cc4n3)n2)cc1	41.1%
96	COc1ccc(N(C(C)C(=O)Nc2cccnc2)S(C)(=O)=O)cc1 (centres undefined)	4.4%
97	COc1ccc(CCNc2nc(-c3ccc(NC(C)=O)cc3)cs2)cc1OC	i
98	CCOc1cc(S(=O)(=O)Nc2cc(Cl)ccc2C)ccc1F	0.7%
99	CC(C)C(NC(=O)Cc1ccccc1[N+](=O)[O-])C(C)C	i
100	CC(=O)c1ccc(NC(=S)Nc2ccc(Cl)cc2Cl)cc1	i
101	Cc1cc(C)cc(C(=O)NCc2cccs2)c1	i
102	CCOc1ccc(OCCn2cnc3ccccc3c2=O)cc1	2.4%
103	COc1ccccc1OCCCC(=O)Nc1nncs1	i
104	Cc1nc2ccc(C(=O)OCc3cccc(F)c3)cc2nc1C	1.68µg/mL*
105	Cc1cc(C)c2[nH]c3sc(C)nc3c2c1	4.9%
106	Brc1ccccc1OCCN1CCOCC1	i
107	O=C(Oc1ccc(N(C(=O)c2ccncc2)S(=O)(=O)c2cccc3cccnc23)c2ccccc12)c1ccncc1	i
108	CCn1c2ccccc2c2cc(CN3CCN(S(C)(=O)=O)CC3)ccc21	3.6%
109	CC(C)CNC(=S)Nc1ccc(Oc2ccccc2)cc1	?
110	N#Cc1ccc(NC(=O)CSc2nc(-c3ccccc3)cc(-c3ccccc3)n2)cc1	i
111	CC1=C(C(=O)N2CCCCC2)C(c2ccsc2)C2=C(CCCC2=O)N1 (centres undefined)	i
112	O=C(Cc1ccc(F)cc1)NC1CCCCC1	i
113	CCNC(=S)Nc1ccc(Cl)c(C(F)(F)F)c1	32.8%
114	CCC(=O)NC(=S)Nc1ccc(C(=O)O)cc1	i
115	COc1cccc2cc(C(=O)C3=C(O)C(=O)N(CCCn4ccnc4)C3c3cccnc3)oc12 (centres undefined)	i
116	Cc1ccc(C)c(N(CC(=O)Nc2ccccc2Cl)S(C)(=O)=O)c1	5.5%
117	S=C(NCc1ccco1)Nc1ccc(N2CCOCC2)c2nonc12	i
118	O=C(Cn1nnc(-c2ccccc2)n1)NC(c1ccccc1)c1ccccc1	i
119	Cc1cc2c(cc1C)N(Cc1ccc(C(C)(C)C)cc1)C1=NCCCN12	1.2µg/mL*
120	CCc1ccc(S(=O)(=O)Nc2c(C)cc(Br)cc2C)cc1	19.7%
121	Cc1ccc(C)c(OCC(=O)Nc2ccc(C(=O)O)cc2)c1	i
122	COc1ccc(CNC(=S)NC2CC2)cc1	i
123	Cc1ccc(S(=O)(=O)/N=C(\Nc2ccccc2C)c2ccccc2)c(C)c1	3.3%
124	Cc1ccc(OCCN2CC(C)OC(C)C2)c(Cl)c1 (centres undefined)	i
125	COC(=O)c1ccc2c(=O)n(CCN3CCOCC3)c(=S)[nH]c2c1	i
126	COc1ccc(CN2CCN(C(=O)COc3ccc(Cl)cc3)CC2)cc1	i
127	Cc1nnc(SCC(=O)NC(c2ccccc2)c2ccccc2)s1	i
128	CCC(C)NC(=O)c1ccc(COc2ccccc2Cl)cc1 (centres undefined)	i
129	COc1ccc(C(=O)Nc2nc3ccc(Cl)cc3s2)cc1Cl	1.5%
130	Cc1cc(C)cc(C(=O)Nc2ccc3c4c(cccc24)CC3)c1	i
131	COc1ccccc1CNC(=O)c1ccc(CN2CCc3ccccc3C2)cc1	i
132	Cc1cc(C)nc(/N=C(\N)N(CCc2c[nH]c3ccccc23)C(=S)Nc2ccc(F)cc2)n1	i
133	Cc1cc(C)nc(SC2CCOC2=O)n1 (centres undefined)	i
134	CN(C)c1ccc(/C=C/C=C(/C#N)c2ccc(F)cc2)cc1	4.9%
135	CC(=O)Nc1ccccc1NC(=O)c1ccccc1CCc1ccccc1	i
136	COc1ccccc1Cc1noc(C(C)(C)C)n1	1.4%
137	COc1ccc(Cl)cc1NC(=S)NNC(=S)Nc1ccc(Cl)cc1	i
138	COC(=O)C1=CNC=C(C(=O)OC)C1c1cc2c(cc1Cl)OCO2	i

Bioassay records: PubChem BioAssay, Southern Research Institute
